# RanGTP-Imp inh: disruptors of Ran-importin-beta complex formation – biochemical, FRET, CFP-Ran, YFP-importin-beta, homogeneous, primary screen; cell-free CFP-Ran/YFP-importin-beta FRET ratio; inhibition, % (no concentration beside the values); actives 1.1% (n = 300,000);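 active = most replicates above 15%; inconclusive = exactly half above 15%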;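 note: 0% = DMSO wells and 100% = Ran loaded with GDP instead of GTP; wells of about 40 µL received 100 nL stock; the first replicate is given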
# Ecoli growth: inhibitors of Escherichia coli growth. OD600, 23 h; stronger effect = lower value. OD600 absorbance (concentration not given with the values). actives 0.21% (n = 330,000). AID 1053175;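 active = OD600 absorbance below the run mean of sample wells minus 3.6 SD, in any replicate, cut at about 0.56 in these data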;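 note: stock transfer was 300 nL into about 60 µL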
# AF4-AF9 inh: blocks AF4 peptide binding to human AF9; P42568; AlphaScreen, biotin-AF4 peptide binding to FLAG-AF9; actives 0.47% (n = 350,000); inhibition, % at 10 µM;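 active = every replicate reaching a set inhibition limit, whatever the replicate mean, cut at about 25% in these data; inconclusive = mean inhibition reaches that limit but some replicates miss it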;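 note: 0% = plate neutral control median and 100% = total signal loss; the record names both 10 and 1 µM as test concentration; the first replicate is given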
# HNF4A DNA FP: change in binding of human HNF4 alpha to DNA; actives 0.3% (n = 360,000); HNF4a-FITC DNA binding, fluorescence polarization, 1 h; P41235; activity change, % at 10 µM; in the data active = activity change above about 30%, passing the limit was not always enough;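 note: controls were the assay level and a saturating level of protein; the project sought stronger binding though the title names inhibitors; some compounds called inactive have numbers as strong as hits; positive values seem to mean higher polarization but the record does not say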
# Target sequence (P41235 whole entry, looked up): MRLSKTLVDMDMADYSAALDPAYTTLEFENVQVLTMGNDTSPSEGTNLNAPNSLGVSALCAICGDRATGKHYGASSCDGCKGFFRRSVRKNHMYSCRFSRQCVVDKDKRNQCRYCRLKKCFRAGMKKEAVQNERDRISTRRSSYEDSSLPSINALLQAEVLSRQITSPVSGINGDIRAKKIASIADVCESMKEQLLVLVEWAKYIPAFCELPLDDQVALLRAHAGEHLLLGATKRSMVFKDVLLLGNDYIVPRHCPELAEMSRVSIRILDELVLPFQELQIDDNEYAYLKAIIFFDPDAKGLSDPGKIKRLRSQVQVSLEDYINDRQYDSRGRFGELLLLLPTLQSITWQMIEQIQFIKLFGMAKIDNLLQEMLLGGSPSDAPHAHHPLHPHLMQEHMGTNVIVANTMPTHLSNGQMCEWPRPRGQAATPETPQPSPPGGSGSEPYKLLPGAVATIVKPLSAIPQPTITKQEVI
# Vif TR-FRET: HIV-1 Vif–A3G interaction blockers – biochemical, TR-FRET, GST-Vif 1-94, biotin-A3G peptide, dose response retest, primary screen (AID 1117319) | TR-FRET GST-Vif / biotin-A3G peptide binding; higher % means a stronger effect; test concentration not given here; strong numbers were not always called active | inhibition, %, or IC50 in µM where a hit was titrated | actives 0.57% (n = 260,000);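 active = above the screen mean plus three standard deviations and confirmed in dose response; inconclusive = results disagree or hit not tested in dose response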;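 note: Vif residues 1-94 fused to GST binding biotinylated APOBEC3G peptide 110-148; 0% = full assay without inhibitor and 100% = GST in place of GST-Vif; retest series ran down from 100 µM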
# FGF22 binding: FGF22 (human) thermal shift binding; recombinant FGF22 thermal shift, SYPRO orange fluorescence; percent of sucrose octasulfate shift, DMSO zero; actives 1.5% (n = 340,000); calls only at 9.99 µM; Q9HCT0;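 active = melting point raised past a set limit in the mean and every replicate; inconclusive = no clear call; three in four hits are not shown here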
# Target sequence (Q9HCT0 whole entry, looked up): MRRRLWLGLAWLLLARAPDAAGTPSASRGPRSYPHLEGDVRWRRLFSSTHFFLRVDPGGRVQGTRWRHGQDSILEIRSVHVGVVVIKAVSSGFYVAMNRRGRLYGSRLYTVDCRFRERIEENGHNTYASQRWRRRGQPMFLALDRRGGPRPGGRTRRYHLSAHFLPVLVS
# UCH37 DUB inh: inhibitors of human deubiquitinating enzyme UCH37; Q9Y5K5; purified proteasome/UCH37, Ub-AMC cleavage fluorescence; inhibition, % (concentration not given with the values); actives 0.33% (n = 330,000);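 active = mean of two replicates above 20%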;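 note: 0% = compound-free wells with enzyme and 100% = wells lacking proteasome; stock transfer was 100 nL into about 20 µL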
# Target sequence (Q9Y5K5 whole entry, looked up): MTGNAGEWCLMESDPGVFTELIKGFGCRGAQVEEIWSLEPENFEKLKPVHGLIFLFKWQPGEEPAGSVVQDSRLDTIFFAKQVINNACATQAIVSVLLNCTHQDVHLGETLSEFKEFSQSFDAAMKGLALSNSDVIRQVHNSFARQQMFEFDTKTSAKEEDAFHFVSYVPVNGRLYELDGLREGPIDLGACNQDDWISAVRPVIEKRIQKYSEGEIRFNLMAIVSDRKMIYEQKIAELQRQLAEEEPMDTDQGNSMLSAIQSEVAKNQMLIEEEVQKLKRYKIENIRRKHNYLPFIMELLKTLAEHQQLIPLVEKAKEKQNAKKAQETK
#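 Reagent: Ub-AMC substrate; assay system: Proteasome-associated human UCH37 deubiquitinase; controls: no-proteasome and no-compound wells; read-out: % inhibition of Ub-AMC cleavage fluorescence; timing: 30 min preincubation with enzyme, 25 min cleavage at room temperature; signal: AMC fluorescence from Ub-AMC cleavage, excitation 355 nm, emission 460 nm; buffer or medium: Tris-HCl pH 7.4 plus ovalbumin, ATP-MgCl2, DTT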
# * hit, by the source's call; i = inactive; ? = inconclusive; . = not tested or not shown; & = joins results of further samples. Some of the compounds tested; count on the stated rates, not on these rows.
SMILES,RanGTP-Imp inh,Ecoli growth,AF4-AF9 inh,HNF4A DNA FP,Vif TR-FRET,FGF22 binding,UCH37 DUB inh
CCOC(=O)C1=C(C)N=c2s/c(=C\c3ccc(OC(C)=O)cc3)c(=O)n2C1/C=C/c1ccccc1 (stereo unspecified),-0.8,.,-4.0,36.5*,-0.2%,i,.
O=C(NCCc1ccccc1)C(=O)NCC1OCCN1S(=O)(=O)c1ccccc1 (stereo unspecified),3.9,0.733,-3.8,-1.1,4.6%,i,0.2
O=C(COc1ccccc1Cl)Nc1ccc(S(=O)(=O)Nc2ccccn2)cc1,2.6,0.681,-0.4,1.1,.,i,-2.9
COc1ccc(CCCNC(=O)C2CCC(=O)N(CCCN3CCCC3=O)C2)cc1 (stereo unspecified),1.8,0.686,-1.9,-1.4,.,i,2.4
CCN(CC)C1CCN(C(=O)c2ccc(OC3CCN(CCc4ccccc4)CC3)cc2)C1 (stereo unspecified),0.0,0.693,3.5,0.0,-1.2%,i,6.0
Cc1ccccc1C(=O)c1c[nH]c(C(=O)N=CN(C)C)c1,1.9,0.633,-0.2,-2.3,.,i,3.6
O=Cc1c(-[n+]2ccccc2)nc([O-])n1-c1ccccc1,-0.4,0.721,.,-18.8,-5.4%,.,0.7
Cc1cc(NC(=O)c2ccc(COc3ccc(Cl)c(C)c3)o2)no1,1.2,0.684,.,3.8,14.1%,.,0.4
CCOCCCn1c(=S)[nH]c2cc(C(=O)NCCc3ccc(OC)c(OC)c3)ccc2c1=O,2.3,0.667,0.6,2.3,-0.5%,i,-1.0
COc1ccc(N(Cc2ccccc2)C(=O)OC(C)(C)C)c(C(=O)N(C)OC)c1,.,0.701,-1.0,-2.5,-0.4%,i,1.2
Cc1ccc(OCCSCc2nc3ccccc3[nH]2)cc1,1.3,0.704,.,-7.5,3.3%,.,1.7
CC(=O)NNC(=O)c1[nH]c2ccc(Br)cc2c1-c1ccccc1,-3.9,0.679,2.2,-4.3,-12.8%,i,3.7
O=C1CCC(=O)N1CCOP1(=O)COc2ccccc2OC1,2.8,0.737,.,-0.4,-3.8%,.,1.6
CCOc1ccc(C(=O)N[C@H](C(=O)Nc2ccc(S(=O)(=O)Nc3nccs3)cc2)C(C)C)cc1,.,0.674,-1.8,-1.7,-1.4%,i,2.8
O=C(O)CCc1cccnc1,0.3,0.623,-2.1,3.1,10.4%,i,0.4
O=C(NO)c1cc(OCC(F)(F)F)ccc1OCC(F)(F)F,?,0.625,.,0.9,3.4%,.,1.3
CCc1ccc2oc(C(=O)N3CCN(c4ccccc4OC)CC3)cc(=O)c2c1,6.2,0.672,1.0,1.7,-4.6%,i,5.7
CCCCCCCCCCOC(=O)C[N+](C)(C)CC1CCCCC1O (stereo unspecified),1.7,0.664,.,0.9,-4.6%,.,3.4
Cc1ccc(C)c(OCCC(=O)NNC(=O)c2ccccc2F)c1,-2.6,0.694,-5.8,1.1,-0.5%,i,2.2
CCc1nc2c(OCc3ccc(OC(F)F)cc3)cccn2c1N(C)C(=O)c1ccco1,.,.,-2.3,1.8,.,i,.
N#C/C(=C\c1c(N2CCCCC2)nc2ccccn2c1=O)C(=O)NC1CCS(=O)(=O)C1 (stereo unspecified),79.5*,.,.,-1.9,-6.8%,.,-1.1
Clc1cccc(Cc2c(-c3ccco3)nc3ccc(Br)cn23)c1,.,.,-4.3,-1.1,.,i,.
COc1ccc(C(=O)N2C=Cc3ccccc3C2C(N)=O)cc1 (stereo unspecified),.,.,-0.7,3.4,-1.1%,i,.
C/C(=N\N1CCN(c2ccc(Cl)cc2)CC1)c1ccco1,0.7,.,-0.6,-3.0,0.2%,i,.
C=C(C)COc1ccc(-c2[nH]ncc2-c2ccccc2)c(O)c1,3.6,0.698,.,-2.5,-4.3%,.,-4.0
O=C1C2ON(c3ccccc3)C(c3cccnc3)C2C(=O)N1c1ccc(Cl)c(Cl)c1 (stereo unspecified),3.1,0.717,.,-2.4,5.5%,.,-1.5
Cc1ccnc(N2C(=O)CSC2c2ccc(Cl)cc2)c1 (stereo unspecified),-0.1,0.612,.,1.3,-5.0%,.,2.3
O=C(N/N=C/c1ccoc1)c1ccccc1Br,0.1,.,1.5,-2.4,.,i,.
CCC(CO)NCc1cc(OC)c(OCC(=O)NCCc2ccccc2)cc1Br (stereo unspecified),10.5,0.691,.,3.1,-7.6%,.,-4.1
O=C(O)CCC(=O)N1CCc2cc(S(=O)(=O)N(CCc3ccccc3)Cc3ccccc3)ccc21,2.1,0.645,.,3.9,26.4%,.,0.2
CCCCSCc1nc2nc(Cl)c(Cl)nc2[nH]1,.,.,3.6,-1.8,-3.4%,i,.
CC(=O)Oc1ccc(/C=C2\C=C(c3ccc(C)cc3)OC2=O)cc1,1.4,0.663,-1.3,-2.6,4.1%,i,2.3
C/C=C/C(=O)OCC(=O)Nc1cccc(S(=O)(=O)NC2=NCCCCC2)c1,-2.0,0.725,4.6,-1.4,6.7%,i,-1.6
CC(=O)OCc1c(COC(C)=O)[n+](=O)c2ccccc2n1[O-],-1.6,0.469*,.,6.7,-6.8%,.,10.2
Cn1c(=O)c2[nH]c(C=Cc3ccc4c(c3)OCO4)nc2n(C)c1=O,.,.,-2.1,-4.2,-3.9%,i,.
CCC(C)(C)NC(=O)C(c1ccc(C)cc1)N(Cc1ccco1)C(=O)Cn1nnc2ccccc21 (stereo unspecified),-0.2,0.796,.,-0.1,6.4%,.,-0.6
COc1ccc(/C=N/NC(=S)Nc2ccccc2)cc1COc1cccc(C)c1C,1.9,.,-2.7,-1.5,?,i,.
CCn1c(NCc2ccccc2Cl)nc2ccccc21,1.7,0.679,.,-0.2,5.7%,.,-1.7
CCOC(=O)c1c(C)[nH]c(C)c1C(=O)CSc1nnc(-c2ccco2)n1Cc1ccccc1,-0.3,0.694,.,-0.9,25.0%&-5.8%,.,6.4
CC(C)(C)OC(=O)N1CCC(CC2CC(c3cccc(Br)c3)=NO2)(C(=O)O)CC1 (stereo unspecified),2.3,0.681,0.9,1.9,.,i,1.1
O=C(CN1CCCSc2ccccc21)N1CCN(S(=O)(=O)c2cccc(F)c2)CC1,.,0.644,3.6,-3.7,3.4%,i,3.1
COc1ccccc1N(C)S(=O)(=O)c1ccc(Cl)c(C(=O)N2CCC(C(N)=O)CC2)c1,-1.2,0.624,-2.6,-2.4,-6.4%,i,5.7
COc1ccc(N2C(=O)CCC(C(=O)N3CCCCC3)C2c2ccc(OC)c(OC)c2)cc1 (stereo unspecified),1.7,0.734,.,-2.4,-0.4%,.,-0.9
COc1ccc(-c2cc(C)nc3nc(N)nn23)cc1,-3.0,0.678,.,2.0,-2.1%,.,-193.9
O=c1c(Cc2c(F)cccc2Cl)c(O)ccn1CCc1c[nH]c2ccccc12,0.1,0.67,1.4,1.6,-4.7%,i,2.3
CC(=O)c1c(C)[nH]c(C(=O)OCC(=O)Nc2c(C)cccc2C)c1C,.,0.647,5.4,0.8,5.1%,i,5.3
CCOC(=O)c1nn(-c2ccccc2Cl)c(=O)cc1OCC(=O)Nc1cccc(OC)c1,-2.8,0.699,1.2,2.3,-3.4%,i,1.8
Cc1ccc(C(=O)Nc2ccc(C(F)(F)F)n(C)c2=O)cc1,-3.4,0.693,1.6,7.0,-3.0%,.,-16.5
NC(=O)CC(NC(=O)Cc1ccc(Cl)cc1)c1ccc(N2CCC(Cc3ccccc3)CC2)c([N+](=O)[O-])c1 (stereo unspecified),-0.7,0.753,4.4,1.2,.,i,4.8
CC(NC(=O)COc1ccc(Oc2ccccc2)cc1)C(=O)O (stereo unspecified),2.1,0.697,.,0.0,-5.5%,.,1.1

# Further records follow:
SMILES,RanGTP-Imp inh,Ecoli growth,AF4-AF9 inh,HNF4A DNA FP,Vif TR-FRET,FGF22 binding,UCH37 DUB inh
CC1CCCCC12NC(=O)N(CC(=O)Nc1ccccc1F)C2=O (stereo unspecified),.,0.649,2.4,-3.6,2.0%,i,2.3
CP(=O)(COC(=O)c1ccccc1)COC(=O)c1ccccc1,-2.9,0.773,.,-1.0,-4.4%,.,3.8
CC1CC(=Cc2ccc([N+](=O)[O-])cc2)C(=O)O1 (stereo unspecified),.,0.622,-2.6,3.9,-1.4%,i,2.3
O=C(O)c1cccc(NC(=O)c2ccc3c(c2)C(=O)N(C2CCCCC2)C3=O)c1,1.9,0.715,-0.1,-4.6,-1.9%,i,1.7
CC(=O)Nc1ccc(NC(=O)CSc2nnc(-c3cc(C)[nH]n3)n2N)cc1,-0.2,0.672,-3.6,-0.8,.,i,1.5
CC(=O)OCC#CCSc1nc2ccccc2n1C,3.9,0.708,-1.1,-1.4,-0.3%,i,1.1
CCCC(=O)Nc1nc(C)c(C(C)=O)s1,-0.4,0.643,-1.2,1.7,.,i,1.7
CCn1c(C(=O)O)c(CC(=O)Nc2ccccc2OC)c2ccccc21,-3.3,0.68,0.0,3.9,-6.1%,i,1.7
O=C(CN1C(=O)NC2(CCCCC2)C1=O)Nc1ccccc1N1CCCC1,2.0,0.708,-8.2,1.0,-6.9%,i,3.9
Cc1ccnc(N2C(=O)c3ccccc3C2=O)c1,3.1,0.663,-4.1,-1.1,-5.0%,i,0.6
CS(=O)(=O)N1CCc2cc(-c3csc(NC(=O)C(c4ccccc4)c4ccccc4)n3)ccc21,3.7,0.675,.,0.4,-3.1%,.,-1.0
CCCCN1CC(=O)N2[C@H]3c4ccccc4OC[C@@H]3[C@H](C(=O)OCC)[C@]2(C)C1=O,.,.,-11.2,-2.4,.,i,-2.5
COc1ccc(NC(=O)CN2CCC(NC(=O)C3CCCCC3)CC2)cc1,-0.2,0.63,.,6.0,-12.2%,.,2.5
O=C(NCc1ccc(F)cc1)c1c(O)c2cccc3c2n(c1=O)CCC3,0.9,0.672,.,-0.9,73.8%,.,-1.2
Cc1nc2sc(C(c3cccc(F)c3)N3CCOCC3)c(O)n2n1 (stereo unspecified),0.5,0.707,.,6.5,-2.3%,.,2.5
O=C(CSc1n[nH]c(-c2ccncc2)n1)Nc1ccc(Cl)c(Cl)c1,4.5,0.593,-0.9,1.3,.,i,3.6
Cc1cccc(C(=O)O/N=C/c2ccc(Br)cc2)c1,-0.3,.,-1.0,5.3,4.4%,i,.
Cc1[nH]n(-c2ccccc2)c(=O)c1CCOC(=O)c1ccc(C(F)(F)F)cc1,1.7,0.671,.,-1.3,2.5%,.,1.4
CCC1=NC(c2ccc(OC)c(OC)c2)N(O)C1(C)C (stereo unspecified),3.1,0.699,.,-0.3,-2.6%,.,-0.8
CCOC(=O)c1c(NC(N)=O)nc2n1CCC2,-1.2,0.662,0.3,3.3,-10.5%,i,0.4
O=C(NCC(c1ccco1)N1CCOCC1)c1ccc([N+](=O)[O-])cc1 (stereo unspecified),-0.8,0.729,-2.3,2.4,-1.9%,i,1.5
Cc1cc2ccccc2c(=O)n1CC(=O)NCC1COc2ccccc2O1 (stereo unspecified),-2.6,0.644,.,2.2,-14.7%,.,-4.2
CC(C)CNc1ncnc2c1ncn2[C@H]1CN(Cc2cccc3ccccc23)C[C@@H](CO)O1,.,.,0.2,-2.0,.,i,.
O=C(NNC(=O)c1ccccc1Br)c1ccccc1Cl,-3.3,0.699,-1.1,-1.2,-4.3%,i,4.5
COCc1ccc(C(=O)N(C)CC2CCCN(CCc3ccc(OC)cc3)C2)o1 (stereo unspecified),0.1,0.658,-1.3,-2.0,0.5%,i,4.0

# Assay outcomes from PubChem BioAssay.
